# Ecoli rRNA inh: reduced GFP signal of wild-type E. coli, primary screen, bacterial rRNA inhibitor project, GFP/RFP fluorescence, OD600, single point; 350,000 tested, 1.6% active; E. coli WT GFP vs humanized-ribosome RFP mutants, 24 h; stronger effect = lower value; DMSO median 0, no signal -100; AID 720706, 2013; GFP signal change (wild-type ribosome), % (concentration not given with the values);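 active = significant combined selectivity score with lowered wild-type GFP, culture density cut under 30%, mutant RFP and density less affected; inactive = any of these conditions unmet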; note: one replicate is shown; some compounds called inactive have numbers as strong as hits
# E coli growth: E. coli growth inhibition, primary screen, OD600 | Escherichia coli growth, 23 h; stronger effect = lower value | OD600 absorbance (concentration not given with the values) | 330,000 tested, 0.21% active | AID 1053175, 2014;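 active = OD600 absorbance below the run mean of sample wells minus 3.6 SD, in any replicate, cut at about 0.56 in these data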;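 note: stock transfer was 300 nL into about 60 µL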
# MLL AF4-AF9 inh: inhibitors of AF4 peptide binding to AF9, primary screen, biochemical, AlphaScreen, biotin-AF4 peptide, FLAG-AF9, single point; Protein AF-9 (Homo sapiens), P42568; inhibition, % at 10 µM; 350,000 tested, 0.47% active;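 active = every replicate reaching a set inhibition limit, whatever the replicate mean, cut at about 25% in these data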;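 note: 0% = plate neutral control median and 100% = total signal loss; the record names both 10 and 1 µM as test concentration; the first replicate is given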
# Target sequence (P42568 whole entry, looked up): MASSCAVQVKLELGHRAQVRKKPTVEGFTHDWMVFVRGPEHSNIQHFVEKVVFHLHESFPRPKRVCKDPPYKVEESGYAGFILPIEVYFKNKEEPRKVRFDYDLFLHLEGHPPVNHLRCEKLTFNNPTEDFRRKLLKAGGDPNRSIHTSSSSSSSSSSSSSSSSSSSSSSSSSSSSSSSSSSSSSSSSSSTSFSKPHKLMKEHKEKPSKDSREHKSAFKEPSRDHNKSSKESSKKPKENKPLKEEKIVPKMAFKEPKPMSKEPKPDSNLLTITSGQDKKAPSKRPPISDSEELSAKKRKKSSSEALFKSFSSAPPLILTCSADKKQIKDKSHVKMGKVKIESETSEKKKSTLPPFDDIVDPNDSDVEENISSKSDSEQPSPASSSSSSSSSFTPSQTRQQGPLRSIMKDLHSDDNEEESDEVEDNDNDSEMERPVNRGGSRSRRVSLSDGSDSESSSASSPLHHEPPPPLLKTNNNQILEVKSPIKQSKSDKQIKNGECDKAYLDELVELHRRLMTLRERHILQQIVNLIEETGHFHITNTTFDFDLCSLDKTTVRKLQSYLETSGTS
# UCH37 inh: inhibitors of human UCH37 deubiquitinase, primary screen, biochemical, Ub-AMC cleavage, fluorescence; inhibition, % (test concentration not listed); 330,000 tested, 0.33% active; purified proteasome/UCH37; Ubiquitin carboxyl-terminal hydrolase isozyme L5 (Homo sapiens), Q9Y5K5;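 active = mean of two replicates above 20%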;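 note: 0% = compound-free wells with enzyme and 100% = wells lacking proteasome; stock transfer was 100 nL into about 20 µL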
# Target sequence (Q9Y5K5 whole entry, looked up): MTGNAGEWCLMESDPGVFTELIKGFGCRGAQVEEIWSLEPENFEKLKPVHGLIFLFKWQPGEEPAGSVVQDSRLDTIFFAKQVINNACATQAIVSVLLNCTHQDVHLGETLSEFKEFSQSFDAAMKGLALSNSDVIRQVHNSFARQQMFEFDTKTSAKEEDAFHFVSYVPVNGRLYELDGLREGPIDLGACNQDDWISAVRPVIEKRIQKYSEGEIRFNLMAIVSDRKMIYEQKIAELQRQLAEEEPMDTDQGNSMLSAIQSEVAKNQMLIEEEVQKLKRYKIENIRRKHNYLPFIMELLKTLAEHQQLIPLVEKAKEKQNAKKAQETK
#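 system = Proteasome-associated human UCH37 deubiquitinase | amount = 0.15 nM proteasome as dispensed | medium = pH 7.4 Tris-HCl (50 mM) with ovalbumin, ATP-MgCl2, DTT | incubation = 30 min preincubation with enzyme, 25 min cleavage at room temperature | detection = AMC fluorescence 355/460 nm | read-out basis = percent inhibition | controls = no-proteasome and no-compound wells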
# Bfl-1 A1 inh: caspase 3/7 activation in MEF A1-2A-BIM cells, primary screen, A1 inhibitor project, cell-based, luminescence, HTS | Caspase-Glo 3/7 luminescence, 3 h; percent of clofoctol response, vehicle zero | caspase activation, % (concentration not given with the values) | 330,000 tested, 0.066% active;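 active = over half of replicate activation scores above 10%, or exactly half above 10 with the replicate mean above 10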;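 note: wells of about 30 µL received 50 nL stock; many hits fall short of the cut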
# FGF22 binding: binders of human FGF22 protein, primary screen, FGF22 synaptogenesis inhibitor project, biophysical, thermal shift, single point. calls only at 9.99 µM. recombinant FGF22 thermal shift, SYPRO orange fluorescence; percent of sucrose octasulfate shift, DMSO zero. 340,000 tested, 1.5% active. Fibroblast growth factor 22 (Homo sapiens), Q9HCT0;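 active = melting point raised past a set limit in the mean and every replicate; three in four hits are not shown here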
# Target sequence (Q9HCT0 whole entry, looked up): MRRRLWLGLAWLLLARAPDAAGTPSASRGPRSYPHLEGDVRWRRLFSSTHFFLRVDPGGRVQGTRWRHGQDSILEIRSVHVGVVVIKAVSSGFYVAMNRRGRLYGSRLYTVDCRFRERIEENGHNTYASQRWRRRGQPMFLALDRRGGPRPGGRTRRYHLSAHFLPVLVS
# Beta apoptosis: inhibitors of cytokine-induced beta cell apoptosis, primary screen, luminescence; INS-1E cytokine-induced death, ATP luminescence, 48 h; percent of positive-control rescue, neutral wells zero; protection from apoptosis, % (no concentration beside the values); 300,000 tested, 0.8% active; AID 435005, 2010;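 active = all replicates at 75% or more, or half of them and the mean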;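 note: 0% = cytokine-treated negative control wells and 100% = positive control rescue; higher means more ATP so stronger rescue from cytokine killing; wells of about 40 µL received 100 nL stock; the first replicate is given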
# T cruzi repl: inhibitors of intracellular T. cruzi growth, primary screen, luminescence, NIH3T3 host cells. AID 1885, 2009. 300,000 tested, 1.4% active. inhibition, % (concentration not given with the values). T. cruzi beta-gal in NIH3T3, 90 h;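 active = mean inhibition across valid replicates above about 55%, limit read from the data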;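 note: signal also drops with host cell toxicity which is not excluded here; 0% = plate median of DMSO wells and 100% = zero luminescence signal; higher percent means less beta-gal luminescence so fewer parasites; stock transfer was 50 nL into about 50 µL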
# Ecoli rRNA inh OD600: second read-out of Ecoli rRNA inh, no call of its own (marks repeat the call); OD600 change, %; measured here: OD600 growth;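 optical density of the mix in the first replicate; 0 = DMSO median and -100 = no signal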
# Ecoli rRNA inh RFP: second read-out of Ecoli rRNA inh, no call of its own (marks repeat the call); RFP signal change, %; measured here: RFP humanized mutant strains;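 first replicate; 0 = DMSO median and -100 = no signal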
# * hit, by the source's call; i = inactive; · = not tested or not shown. This is a subset. The share of hits here may be higher or lower than overall.
nr	Structure	Ecoli rRNA inh	Ecoli rRNA inh OD600	Ecoli rRNA inh RFP	E coli growth	MLL AF4-AF9 inh	UCH37 inh	Bfl-1 A1 inh	FGF22 binding	Beta apoptosis	T cruzi repl
1	O=C(COC(=O)c1cccs1)c1ccc2ccccc2c1	·	·	·	0.71	·	-5.1	0.6	·	-5	-9
2	CN(Cc1ccccc1)C(=O)CN1C(=O)c2ccccc2C1=O	12	14	2.8	0.64	-5.3	2.0	1.0	i	·	-15
3	O=C(NCC(=O)N(c1cccc(F)c1)C(C(=O)NC1CCCC1)c1ccco1)c1ccco1 (stereo not given)	3	4	2.3	0.69	-3.2	0.0	-1.0	i	·	16
4	O=C(COc1ccc(F)cc1)Nc1ccc(S(=O)(=O)Nc2ncccn2)cc1	11	14	-0.5	·	-0.9	·	-0.1	i	-5	-10
5	O=C(NCCCN1CCN(c2cccc(Cl)c2)CC1)c1cccc(N2CCCC2=O)c1	·	·	·	0.66	·	1.9	-0.4	·	-6	10
6	CCc1noc(C)c1C(=O)N1CCCC(CCC(=O)NCc2cccc(OC)c2)C1 (stereo not given)	13	4	0.5	0.66	-2.7	2.7	-0.2	i	-1	14
7	CC(=O)c1c(O)c2ccccc2n(Cc2ccccc2)c1=O	10	9	-2.2	0.69	-2.7	-0.3	-0.7	i	-2	1
8	Cc1ccc(C)c(S(=O)(=O)N2CCN(C(=O)c3ccc4ccccc4n3)CC2)c1	-15	-25	0.9	0.71	-4.0	1.1	-0.2	i	1	·
9	COc1ccc(NC(=O)CN(C)C(=O)c2cc(-c3cccs3)nn2-c2ccccc2)cc1	6	7	4.3	0.7	-15	3.1	0.0	i	-4	22
10	CC(=O)Nc1ccc(S(=O)(=O)Nc2nc3ccccc3nc2Nc2ccc(N)cc2)cc1	-1	-6	-8.9	0.64	3.6	15	1.3	i	5	11

nr	Structure	Ecoli rRNA inh	Ecoli rRNA inh OD600	Ecoli rRNA inh RFP	E coli growth	MLL AF4-AF9 inh	UCH37 inh	Bfl-1 A1 inh	FGF22 binding	Beta apoptosis	T cruzi repl
11	O=C(Nc1ccccc1)N1CCC(c2ccccc2)C1 (stereo not given)	·	·	·	0.67	·	1.5	-1.2	·	-4	5
12	Cc1cc(C)c(S(=O)(=O)N2CCN(C(=O)c3ccc4c(c3)OCO4)CC2)c(C)c1	-8	-24	3.9	0.69	6.0	1.2	0.5	i	1	9
13	O=C(NCc1ccco1)c1ccc2c(c1)C(=O)N(C1CCCCC1)C2=O	·	·	·	0.71	·	1.8	1.0	·	-15	4
14	CCOC(=O)c1oc2ccccc2c1NC(=O)COc1ccc(F)cc1	13	13	-13	0.77	0.6	-64	0.1	i	-1	12
15	CC12c3ccccc3C(c3ccccc31)C1C(=O)N(Cc3cccnc3)C(=O)[C@H]12 (stereo not given in full)	·	·	·	0.68	·	0.7	0.0	·	-2	51
16	COc1ccccc1N1CCN(C2CCCN(C(=O)CCC(C)=O)C2)CC1 (stereo not given)	-1	5	-1.6	0.68	2.1	5.4	0.1	i	1	3
17	C[C@@H](C(=O)Nc1cccc(S(=O)(=O)N2CCOCC2)c1)N1C(=O)C2CC=CCC2C1=O (stereo not given in full)	11	6	2.1	·	-8.0	-0.2	1.1	i	-12	-9
18	CC(C)(C)NC(=O)CN(Cc1ccc2c(c1)OCO2)C(=O)CNS(=O)(=O)c1ccc(F)cc1	0	4	-0.6	0.64	-1.1	4.8	-0.1	·	1	1
19	Cc1ccc(C(CC(=O)N2CCCC2)c2ccccc2)c(O)c1C (stereo not given)	·	·	·	0.7	·	0.8	0.9	·	·	3
20	O=C(c1ccc(OC2CCN(Cc3cccc(OCCO)c3)CC2)cc1)N1CCCC1	21	25	0.8	0.65	8.4	1.5	0.7	i	7	4

nr	Structure	Ecoli rRNA inh	Ecoli rRNA inh OD600	Ecoli rRNA inh RFP	E coli growth	MLL AF4-AF9 inh	UCH37 inh	Bfl-1 A1 inh	FGF22 binding	Beta apoptosis	T cruzi repl
21	COc1ccccc1OCC(=O)NCCc1nc2ccccc2[nH]1	·	·	·	0.7	·	-2.1	0.0	·	-3	-25
22	Cc1cccc2cc(CN(Cc3ccc(F)cc3)C(=O)N3CCOCC3)c(=O)[nH]c12	9	5	-0.1	0.7	-1.3	-4.7	0.7	i	·	10
23	COc1ccc(-c2oc(=O)c3cc(OC)c(OC)cc3c2/C=C/c2ccc([N+](=O)[O-])cc2)cc1	2	2	-3.8	·	8.9	5.7	0.3	i	10	·
24	COc1ccc2cc3cc(C(=O)N4CCN(C5CCCCC5)CC4)oc3nc2c1	·	·	·	0.68	·	i	0.9	·	-1	2
25	COC(=O)c1sccc1NC(=O)Nc1ccc(C)cc1	-6	-4	3.1	0.74	-3.1	-0.2	1.6	i	-1	·
26	O=C(N/N=C/c1cc([N+](=O)[O-])ccc1O)Nc1ccccc1	11	27	-0.7	·	0.4	·	-1.1	i	-3	-7
27	Cc1nnc(NC(=O)c2ccccc2F)s1	14	11	-2.8	0.67	2.6	0.6	-0.7	i	-3	-19
28	COc1cccc(Nc2cc(N3CCOCC3)c3nonc3c2[N+](=O)[O-])c1	·	·	·	0.79	·	7.0	-0.3	·	4	17
29	O=C(CSc1nc2ccccc2c(=O)n1Cc1ccccc1)NCc1ccco1	·	·	·	0.77	·	2.8	-0.2	·	11	25
30	Cc1nc(SCC(=O)c2cccc([N+](=O)[O-])c2)n[nH]1	·	·	·	0.77	·	1.4	0.5	·	-3	-23

nr	Structure	Ecoli rRNA inh	Ecoli rRNA inh OD600	Ecoli rRNA inh RFP	E coli growth	MLL AF4-AF9 inh	UCH37 inh	Bfl-1 A1 inh	FGF22 binding	Beta apoptosis	T cruzi repl
31	COc1ccc(C(=O)NCCSc2ccc(C)cc2)cc1	·	·	·	0.66	·	5.9	-0.5	·	-7	21
32	O=C(NCC1CCCO1)c1ccc(CSCc2cccc(F)c2)o1 (stereo not given)	-12	-12	-1.1	0.7	1.2	1.0	-0.2	i	-2	-5
33	Cc1cc(-c2ccc(Br)cc2)n[nH]1	-1	4	-2.8	0.56	-0.9	-1.6	-2.9	i	-7	-2
34	COc1ccc(CCNc2c3ccccc3nc3ccccc23)cc1OC	-15	-12	-8.8	0.66	8.0	-117	0.5	i	77*	27
35	CCC(=O)Nc1ccc(NC(=O)CSc2nnc(C(C)C)n2C)cc1	·	·	·	0.72	·	8.0	-0.1	·	6	-14
36	CC(C)(C)C(=O)Nc1nnc(CSCc2ccccc2F)s1	·	·	·	0.7	·	5.7	-1.0	·	4	8
37	Cc1cc(C)cc(SCc2noc(C(=O)NC(C)C)c2C(=O)O)c1	0	6	6.9	·	-4.6	·	1.4	i	-3	23
38	CC(C)CNC(=S)NNC(=O)c1csc2c1CCC(C)C2 (stereo not given)	·	·	·	0.72	·	-1.2	2.6	·	-4	9
39	CN1C(=O)C(O)(c2nnc(-c3ccccc3)o2)c2ccccc21 (stereo not given)	7	2	-1.6	0.64	-0.2	-3.6	1.2	i	-6	-1
40	COC(=O)[C@]1(S(=O)(=O)c2ccccc2)C[C@@H]2ON=C(c3ccc(OC)cc3)[C@@H]2C1	4	1	-9.6	·	-18	4.8	0.9	i	3	-22

nr	Structure	Ecoli rRNA inh	Ecoli rRNA inh OD600	Ecoli rRNA inh RFP	E coli growth	MLL AF4-AF9 inh	UCH37 inh	Bfl-1 A1 inh	FGF22 binding	Beta apoptosis	T cruzi repl
41	CC(C)CC(NC(=O)c1ccco1)C(=O)Nc1ccc2c(c1)OCCO2 (stereo not given)	9	9	1.3	0.77	-0.6	2.8	-0.2	·	-7	2
42	CC1CCc2nn(CC(=O)NC3CCCC(C)C3C)cc2C1 (stereo not given)	0	-11	0.9	0.7	-0.8	0.7	-0.5	i	-6	-9
43	NC(=O)c1cc[n+](CC(=O)c2ccc(NC(=O)c3ccccc3)cc2)cc1	·	·	·	0.68	·	1.6	-1.0	·	-11	-2
44	Cc1ccccc1NC(=O)Nc1ccccc1N1CCCCC1	-10	-3	-1.2	0.67	-2.6	1.4	0.9	i	-1	24
45	CCOC(=O)Cc1nn(Cc2nc(-c3ccc(C)cc3)cs2)c(=O)c2ccccc12	-5	1	2.2	0.68	1.1	3.8	0.5	i	-3	1
46	Cc1cc(NC(=O)CSc2ccc3nnc(-c4ccc(F)cc4)n3n2)no1	10	16	4.4	0.74	-18	-17	0.2	i	-2	8
47	Cc1cc(NS(=O)(=O)c2ccc(NC(=O)Cc3ccccc3)cc2)nc(C)n1	2	21	-2.4	0.64	-16	1.2	-1.2	i	-1	-13
48	COc1ccc(C(=O)NCc2ccc(Cl)cc2)cc1S(=O)(=O)N1CCCC1	·	·	·	0.63	-4.7	1.5	-0.4	i	6	·
49	COc1cccc(C(=O)Nc2ccc(-n3nncc3C(C)(C)C)cc2)c1	-20	-26	-7.8	0.71	-9.4	-0.3	-0.9	i	6	11
50	Cc1c(C(=O)O)sc2ncnc(N3CCCCC3C)c12 (stereo not given)	·	·	·	0.73	·	6.1	-0.1	·	-1	-7

nr	Structure	Ecoli rRNA inh	Ecoli rRNA inh OD600	Ecoli rRNA inh RFP	E coli growth	MLL AF4-AF9 inh	UCH37 inh	Bfl-1 A1 inh	FGF22 binding	Beta apoptosis	T cruzi repl
51	COc1cccc(CN2CCNC(=O)C2CC(=O)NCCCn2ccnc2)c1 (stereo not given)	7	0	0.0	0.64	4.0	-0.7	0.1	i	1	-9
52	CCOC(=O)c1c(C)n(C)c2ccc(OC)c(NC(=O)CN3CCC4(CC3)OCCO4)c12	·	·	·	0.68	·	-2.0	1.9	·	-9	35
53	CCn1nnnc1NCc1cccc(Cl)c1	-2	-3	-2.0	0.63	1.9	2.5	0.0	i	-6	-3
54	O=C(NC1CCCCC1)N(Cc1ccc(F)cc1)Cc1nc2ccccc2c(=O)[nH]1	·	·	·	0.67	·	2.3	1.0	·	0	-10
55	COc1ccc2cc(S(=O)(=O)N3CCN(C)CC3)ccc2c1	·	·	·	0.68	·	-3.2	0.6	·	-3	0
56	O=C(Nc1ccc(N2CCOCC2)c(S(=O)(=O)Nc2ccccc2Cl)c1)c1ccccc1	-16	-10	5.2	0.69	4.6	0.1	0.3	i	17	·
57	O=C(NCC1CCCO1)C1CCN(S(=O)(=O)Cc2ccccc2)CC1 (stereo not given)	·	·	·	0.72	·	3.7	0.8	·	-2	-37

# Screens as filed in PubChem.
